VDR inhibitor = blocks the human vitamin D receptor; P11473; VDR-SRC2-3 peptide fluorescence polarization, 2 h; Potency, µM, for inactives: max response, negative = inhibition, usual class: inhibitors; 400,000 compounds, 0.93% hits; active = well fitted inhibition curve with a large enough effect; inconclusive = small, poorly fitted or top-dose-only effect, or another doubt; inactive = no such curve, though single readings can be large or run the other way; also: series mostly up to about 120 µM
Target sequence (P11473 whole entry, looked up): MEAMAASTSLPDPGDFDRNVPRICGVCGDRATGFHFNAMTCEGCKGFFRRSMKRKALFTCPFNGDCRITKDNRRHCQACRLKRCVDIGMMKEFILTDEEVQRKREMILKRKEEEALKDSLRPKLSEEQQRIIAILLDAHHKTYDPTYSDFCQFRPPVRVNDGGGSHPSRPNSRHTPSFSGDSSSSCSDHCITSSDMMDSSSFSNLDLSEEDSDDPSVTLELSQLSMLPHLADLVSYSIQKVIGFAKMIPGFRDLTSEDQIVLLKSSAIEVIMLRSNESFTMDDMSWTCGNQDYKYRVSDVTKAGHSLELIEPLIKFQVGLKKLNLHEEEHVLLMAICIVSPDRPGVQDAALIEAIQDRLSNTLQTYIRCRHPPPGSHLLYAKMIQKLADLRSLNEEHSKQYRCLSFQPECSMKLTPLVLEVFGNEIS
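Measured by FP: displacement of SRC2-3 coactivator peptide from VDR by library compounds, following a two-hour ambient incubation.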
The depositor's hits bear a star; ? = inconclusive; [ ] = remark or other dose. % is scaled to controls: 0 for no effect and ±100 for the full control effect; potency is read from the fitted curve at half-maximal effect. This is a subset; count on the stated rates, not on these rows.

SMILES	VDR inhibitor
Cc1ccc(S(=O)(=O)NCCC(=O)NC2CCCC2)cc1	16%
COc1ccc2occ(NC(C)=O)c2c1	14%
COc1ccc(-n2c(SCC(=O)/C(C#N)=C(\C)N)nc3ccccc3c2=O)cc1OC	-1%
CCOC(=O)C(=O)C1=C(N2CCOCC2)/C(=C\c2cccc([N+](=O)[O-])c2)CC1	-9%
C[C@H](O)[C@@H]1C(=O)N2CCc3ccc(N4CCOCC4)cc3[C@@H]2C[C@@H]1N(C)C(=O)C(C)(C)C	-3%
CCOC(=O)N1CCN(C(=O)C2CCN(S(=O)(=O)c3ccc(NC(C)=O)cc3)CC2)CC1	-3%
COc1ccccc1NC(=O)NCCN1CCN(c2cccc(Cl)c2)CC1	?
CCOc1ccc(N(CC(=O)NCc2ccc(F)cc2)S(=O)(=O)c2c(C)noc2C)cc1	-11%
CCN1CCN(c2nc(C)nc3c2sc(=S)n3C)CC1	25µM*
CCN1CCN(C(=O)CSCc2nc(-c3ccc(OC)c(OC)c3)oc2C)CC1	-18%
CC(CC(=O)O)CC(=O)Nc1ccc(S(N)(=O)=O)cc1 (centres undefined)	13%
Cn1ncc2c(O/N=C(\N)c3ccc(C(F)(F)F)cc3)ncnc21	-6%
O=C(c1ccco1)N1N=C(c2cccs2)CC1c1ccco1 (centres undefined)	2%
CC(C)(C)NC(=O)CN(C(=O)C1(C)CC(=O)N=C2C=CC=CN21)C1CCCC1 (centres undefined)	-5%
CC(C)C1O/C(=N/C(=O)Nc2ccc(Cl)c(Cl)c2)NC1=O (centres undefined)	7%
CC(C)Oc1ccccc1/C=N/n1nnnc1N	-19%
O=C(COC(=O)C1CCCO1)Nc1cccc(C(F)(F)F)c1 (centres undefined)	8%
COc1ccc2[nH]c3c(c2c1)CCN1C(=O)C(CC(=O)NCC24CC5CC(CC(C5)C2)C4)C[C@H](C(=O)N2CCOCC2)[C@@]31CCC1CCCC1 (some centres undefined)	?
COc1cccc(/C=N/NC(=S)Nc2cccc(C(=O)O)c2)c1	5%
Cc1oc(-c2ccccc2F)nc1CS(=O)CC(=O)NCc1ccc(Cl)cc1 (centres undefined)	-5%
CN(Cc1n[nH]c(=S)n1C)S(=O)(=O)c1ccccc1	7%
COc1cc(CN(C(=S)NCC(=O)NC2CC2)C2CCCC2)cc(OC)c1OC	-10%
Cc1ccc(C(=O)NCCNC(=O)COc2ccc(Cl)cc2)cn1	14%
COC(=O)c1cc(C(=O)N2CCOCC2)cc([N+](=O)[O-])c1	7%
CCOC(=O)N1CCN(S(=O)(=O)c2ccc3c4c(cccc24)C(=O)N3)CC1	-21%

Additional structures follow.
SMILES	VDR inhibitor
O=C(Sc1n[nH]c(=O)[nH]c1=O)c1ccccc1	?
O=C(CN1C(=O)C2C3C=CC(C3)C2C1=O)NCc1ccccc1 (centres undefined)	-3%
COC(=O)c1ccccc1NC(=O)c1cccs1	-6%
O=S(=O)(c1ccc(SCCOc2ccccc2Cl)nc1)N1CCCC1	14%
CC1=C(C(=O)N2CCOCC2)C(c2cccc3ccccc23)NC(=S)N1 (centres undefined)	13%
O=C1c2c(O)cc(O)cc2O[C@H](c2ccc(O)c(O)c2)C1O (some centres undefined)	-9%
CC1(C)N=C(c2ccc(Cl)cc2)C(=O)N1	0%
COc1cccc(/C(O)=C2/C(=O)C(=O)N(CCN3CCOCC3)C2c2cccs2)c1 (centres undefined)	-11%
Cc1nn(CC(=O)NCc2cccnc2)c(=O)c2ccccc12	-6%
CCCNC(=O)c1ccc(Cn2c(=S)[nH]c3c([nH]c4ccc(OC)cc43)c2=O)cc1	-12%
O=C(O)CCC(=O)N1N=C(c2cccs2)CC1c1cn(-c2ccccc2)nc1-c1ccccc1 (centres undefined)	17%
COc1ccc(NC(=O)CCNC(=O)c2ccccc2Cl)cc1OC	22%
COc1ccc(N[C@@H]2CCN3C(=O)c4ccccc4[C@@H]3C[C@H]2O)cc1	-1%
COc1ccc(NC(=O)c2cc(-c3ccc(C)c(C)c3O)n[nH]2)cc1Cl	-11%
CCSc1nc(N)nc(-c2cccs2)c1C#N	14%
COc1ccc(C(=O)NC(C)c2ccc(-n3ccnc3)cc2)c(OC)c1 (centres undefined)	0%
CN(C)CCCNC(=O)c1cc(C(=O)c2ccccc2)c[nH]1	8%
COCCN(Cc1ccccc1)C(=O)c1cc(S(=O)(=O)N2CCCCCC2)ccc1OC	-5%
CCc1ccc(NC(=O)CN(c2ccc(C)cc2)S(=O)(=O)c2c(C)nn(C)c2C)cc1	4%
CCOc1ccc(NC(=O)CN(C)S(=O)(=O)c2ccc(-c3ccc(=O)[nH]n3)s2)cc1	-4%
COc1cc(S(=O)(=O)N2CCN(c3ccccc3F)CC2)ccc1Cl	-1%
CCOC(=O)[C@@H]1[C@H]2COc3ccccc3[C@@H]2N2C(=O)N(c3ccccc3)C(=O)[C@@]12C	-3%
CC(C)OC(=O)NCCOC(=O)Nc1ccc(Cl)cc1	-8%
CCOC(=O)Cn1nc(NC(=O)c2ccc(C(=O)OC)cc2)cc1C	-4%
CC(C)n1c(NCc2c[nH]c3ccccc23)nc2ccccc21	-1%

In another format: 15 of the compounds above.
canonical_smiles,VDR inhibitor
CC1(C)N=C(c2ccc(Cl)cc2)C(=O)N1,0%
COc1cccc(/C(O)=C2/C(=O)C(=O)N(CCN3CCOCC3)C2c2cccs2)c1 (centres undefined),-11%
Cc1nn(CC(=O)NCc2cccnc2)c(=O)c2ccccc12,-6%
CCCNC(=O)c1ccc(Cn2c(=S)[nH]c3c([nH]c4ccc(OC)cc43)c2=O)cc1,-12%
O=C(O)CCC(=O)N1N=C(c2cccs2)CC1c1cn(-c2ccccc2)nc1-c1ccccc1 (centres undefined),17%
COc1ccc(NC(=O)CCNC(=O)c2ccccc2Cl)cc1OC,22%
COc1ccc(N[C@@H]2CCN3C(=O)c4ccccc4[C@@H]3C[C@H]2O)cc1,-1%
COc1ccc(NC(=O)c2cc(-c3ccc(C)c(C)c3O)n[nH]2)cc1Cl,-11%
CCSc1nc(N)nc(-c2cccs2)c1C#N,14%
COc1ccc(C(=O)NC(C)c2ccc(-n3ccnc3)cc2)c(OC)c1 (centres undefined),0%
CN(C)CCCNC(=O)c1cc(C(=O)c2ccccc2)c[nH]1,8%
COCCN(Cc1ccccc1)C(=O)c1cc(S(=O)(=O)N2CCCCCC2)ccc1OC,-5%
CCc1ccc(NC(=O)CN(c2ccc(C)cc2)S(=O)(=O)c2c(C)nn(C)c2C)cc1,4%
CCOc1ccc(NC(=O)CN(C)S(=O)(=O)c2ccc(-c3ccc(=O)[nH]n3)s2)cc1,-4%
COc1cc(S(=O)(=O)N2CCN(c3ccccc3F)CC2)ccc1Cl,-1%

New compounds follow.
SMILES	VDR inhibitor
Cc1cccc(NC(=O)CSCC(=O)Nc2ccccc2N2CCCC2)c1	-16%
COc1cc(-c2nc(S(=O)(=O)c3ccccc3)c(N3CCOCC3)o2)cc(OC)c1OC	2%
Cc1cc(-c2ccc(C(C)C)c(S(=O)(=O)NCCN3CCC(C)CC3)c2)on1	-11%
Cc1cccnc1NC(=O)Nc1ccc(Cl)cc1	-10%
COc1ccc(OC)c(NC(=O)CS(=O)(=O)Cc2nc(-c3ccc(C)cc3)oc2C)c1	-14%
CCOc1ccc(S(=O)(=O)NC2CCCC2)cc1	8%
Fc1cccc(Cc2noc(CN3CCCN(C4Cc5ccccc5C4)CC3)n2)c1	4%
CCn1c(N)cc(=O)[nH]c1=S	-17%
COc1ccccc1NC(=O)c1sc2ncn(Cc3ccccc3C)c(=O)c2c1C	-1%
COCCn1c(SCCOc2ccccc2)nc2ccccc2c1=O	-10%
O=C(Nc1ccc(Br)cc1)C1CCCN(S(=O)(=O)c2cccnc2)C1 (centres undefined)	-10%
COc1ccc(CNC(=O)C[C@H]2C[C@H](C(=O)N3CCCCC3)[C@@]3(C)c4[nH]c5cc(CCC(=O)N(C)C)ccc5c4CCN3C2=O)cc1OC	-4%
CSCCC(NS(=O)(=O)c1ccc2c(c1)oc(=O)n2C)C(=O)N1CCN(c2cc(C)ccc2C)CC1 (centres undefined)	4%
CN(C)S(=O)(=O)c1ccc(C(=O)Nc2nnc(-c3ccc4c(c3)CCCC4)o2)cc1	0%
CCc1cc(C(=O)c2ccccc2)c(N)s1	?
CC(=O)c1c(C)[nH]c(C(=O)CSc2nnc(-c3ccccc3)o2)c1C	7%
NC(=O)C(c1ccccc1)C1CCCCC1 (centres undefined)	-10%
Cc1cc(C(=O)OCC(=O)NCc2ccc(Cl)cc2)c(C)o1	12%
Cc1cccc(OCCNc2cc(N3CCN(CCO)CC3)ccc2[N+](=O)[O-])c1	-6%
O=C(O)CSc1nnc(C2COc3ccccc3O2)n1-c1ccccc1 (centres undefined)	-9%
CCN(CC)CCNC(=O)CN1C(=O)CSc2ccc(S(=O)(=O)N3CCOCC3)cc21	10%
CC[N+](CC)(CC)CC(=O)Nc1ccc(SC(F)F)cc1	-16%
Cc1c(Cl)cccc1NC(=O)CNC(=O)Cc1c[nH]c2ccccc12	15%
O=S(=O)(NCc1cc(-c2ccccc2)no1)c1ccccc1Cl	8%
COc1ccc(CN2CCNC(=O)C2CC(=O)N(C)CC2CCOCC2)c(F)c1 (centres undefined)	-16%

Next section
SMILES	VDR inhibitor
O=C(CSc1nc(-c2ccco2)cc(C(F)(F)F)n1)NC1CCCCCCC1	-7%
Cn1nc(C(=O)Nc2cccc(C(F)(F)F)c2)c2ccccc2c1=O	-10%
COc1ccc(-n2nc3c(N4CCC(C(=O)N5CCCCCC5)CC4)nnc(C)c3c2C)cc1	-4%
COc1ccc(C2c3ccc(O)cc3Oc3ncn(CCCO)c(=N)c32)cc1OC (centres undefined)	-2%
CCN=C1SC(CC(=O)NC(C)c2ccccc2)C(=O)N1CC (centres undefined)	-3%
O=C(O)CCCCCN1C(=O)C(O)=C(C(=O)/C=C/c2ccccc2)C1c1ccccc1[N+](=O)[O-] (centres undefined)	-7%
Cc1ccc(C(=O)NCC(=O)NCC(=O)OCc2ccc(Cl)cc2)cc1	2%
CCn1c(=O)cc(OCC(=O)O)c2ccccc21	-7%
COc1ccccc1NCC(=O)NNCC(=O)Nc1ccc(F)c(Cl)c1	-11%
CC1S/C(=C(\C#N)C(=O)NCc2ccco2)N(c2ccc(F)cc2)C1=O (centres undefined)	3%
CNC(=O)C(=O)Nc1nc(C23CC4CC(CC(C4)C2)C3)cs1	8%
Nc1nnc(SCC(=O)NC2CCCCC2)s1	1%
CCOC(=O)N1CCN(S(=O)(=O)c2ccc(C(=O)Nc3sc4c(c3C#N)CC(C)(C)NC4(C)C)cc2)CC1	2%
COc1ccc(-n2c(SCC(=O)N3CCC(C(=O)O)CC3)nc3ccccc3c2=O)cc1OC	65%[activator]
Cc1cc(NC(=O)Cc2c(F)cccc2Cl)no1	-11%
CN(C)c1ncc2ncc(=O)n(CCc3ccccc3)c2n1	-22%
COc1cc(C(=O)NCC(=O)N/N=C(\C)Cc2ccccc2)cc(OC)c1OC	-7%
O=C(NC12CC3CC(CC(C3)C1)C2)c1c(Cl)cccc1Cl	-3%
COc1ccc(C2C(C#N)=C(N)OC3=C2C(=O)CCC3)cc1Cn1nc(C)c([N+](=O)[O-])c1C (centres undefined)	-11%
COc1cc(/C(C)=N\NC(N)=S)cc(OC)c1OC	-6%
CC(=O)c1ccc(N2C(=O)N(Cc3cc(C)ccc3C)c3ccccc3S2(=O)=O)cc1	3%
CCN(CC(=O)Nc1ccccc1C(F)(F)F)C(=O)c1cc2c(s1)CCCCC2	-10%
COc1ccccc1CNc1cc(C)ccc1C	4%
O=C(CN1CCN(c2ccccn2)CC1)Nc1ccc(Oc2ccccc2)cc1	18%
O=C(NCCc1ccc(Cl)cc1Cl)c1cncc(Br)c1	-14%

(continued)
SMILES	VDR inhibitor
COCCNC(=O)c1cccc(NS(=O)(=O)c2cccc3cccnc23)c1	-11%
O=C(NCCc1ccccc1)c1cc2sccc2n1Cc1ccc(F)cc1	-13%
CC(=O)/C(N=Nc1ccc(-n2ccc(C(F)(F)F)n2)cc1)=C(\C)O	-8%
CC(=O)c1cccc(NC(=S)NC(=O)c2ccc(Br)cc2)c1	-10%
COc1ccccc1CN1CC(C(=O)NCc2ccc(C)c(F)c2)CCC1=O (centres undefined)	-2%
CCCCCCCCCCCCCCCCN	1%
Cc1noc(-c2ccc(-c3noc(-c4cccc(Cl)c4)n3)cc2)n1	6%
O=S(=O)(Nc1cccc2cccnc12)c1ccc2ccccc2c1	-6%
O=C(O)CSc1c(-c2ccccc2)c2cc(Cl)ccc2[nH]c1=O	-25%
CCCCn1c(N)c(NCC(C)C)c(=O)[nH]c1=O	-9%
N#Cc1c(N2CCN(C(=O)c3ccccc3Cl)CC2)nc(-c2ccccc2)c2c1CCCC2	3%
O=C(Nc1cccc([N+](=O)[O-])c1)C12CC3CC(C1)CC(n1cnc([N+](=O)[O-])n1)(C3)C2	19%
CCCc1nn2c(=O)cc(COc3ccc(/C=C(\C#N)C(=O)Nc4ccccc4)cc3)nc2s1	-27%
COC(=O)[C@]1(C)N[C@H](CN(C)S(=O)(=O)c2ccccc2)[C@@H]2C(=O)N(Cc3ccccc3)C(=O)[C@@H]21	1%
O=C(CCNC(=O)C1CCN(S(=O)(=O)c2ccc(F)cc2)CC1)NCc1ccncc1	-20%
O=c1cc(-c2ccc(O)cc2)oc2c(C3O[C@H](CO)[C@@H](O)[C@H](O)[C@H]3O)c(O)cc(O)c12 (some centres undefined)	-11%
COc1ccc(-n2nc3ccc(NC(=O)c4cc5ccccc5o4)cc3n2)cc1Cl	-2%
COc1cccc(Cn2c(=O)n(-c3ccccc3C)c(=O)c3c2c2cc(C)ccc2n3C)c1	5%
Oc1ccccc1N1CCN(C(c2ccccc2)c2ccccc2)CC1	5%
CCN(CC)c1cc(C)c2cc(NC(=O)/C=C/c3ccccc3OC(C)C)ccc2n1	-24%
c1csc(C2C3=C(Nc4ncnn42)c2ccccc2OC3)c1 (centres undefined)	6%
O=C(CCNS(=O)(=O)c1ccccc1F)N1CCN(Cc2ccccc2)CC1	1%
Cc1ccc(-c2c(C(=O)O)c(C(=O)O)c3n2CSC3)cc1	8%
Cc1nc2ccc(NC(=O)COc3cccc(F)c3)cc2s1	-15%
COc1ccccc1CNC(=O)C(=O)NCC(c1ccco1)N1CCOCC1 (centres undefined)	-5%

Compound activity deposited in PubChem by National Center for Advancing Translational Sciences (NCATS).
